NPYLR7 agonist = agonists of mosquito NPYLR7 receptor, primary screen, cell-based, Aedes aegypti, calcium fluorescence, mosquito biting behavior. AID 1259423, 2018. activation, % at 10 µM. HEK293T NPYLR7/Galpha15, GCaMP6s calcium fluorescence. Aedes aegypti neuropeptide Y-like receptor 7 (NPYLR7). 0.15% of 270,000 active; in the data active = activation above about 40%;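 note: 0% = vehicle and 100% = reference agonist at the receptor; some compounds past the cut are filed as inactive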
NPYLR7 agonist max-min = also measured in NPYLR7 agonist; calls as there; activation, %; measured here: Max-Min RFU normalised activation; some inactives read as strong as hits;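 span of the calcium signal over five minutes; 0% = vehicle and 100% = native peptide agonist; compound fluorescence can raise it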
* marks the source's active call; other numbers are inactive results; & = joins results of further samples. Only part of the results is shown; rates above refer to the full screens.

A first look:
SMILES | NPYLR7 agonist | NPYLR7 agonist max-min
COc1ccc(C#N)c(NC(=O)C2CCCOC2)c1 (stereo not drawn) | 10.2 | 6.8
CCc1[nH]n(-c2ccc(Cl)c(Cl)c2)c(=O)c1C1=C([n+]2ccccc2)C(=O)N(c2ccccc2F)C1=O | -6.9 | -3.0
CNC(=O)[C@H]1CN(S(=O)(=O)c2ccccc2)[C@]2(C)C(=O)N(CCO)c3ccccc3[C@H]12 | 21.5 | 29.7

The listing (from the top)
SMILES | NPYLR7 agonist | NPYLR7 agonist max-min
COc1ccc(C#N)c(NC(=O)C2CCCOC2)c1 (stereo not drawn) | 10.2 | 6.8
CCc1[nH]n(-c2ccc(Cl)c(Cl)c2)c(=O)c1C1=C([n+]2ccccc2)C(=O)N(c2ccccc2F)C1=O | -6.9 | -3.0
CNC(=O)[C@H]1CN(S(=O)(=O)c2ccccc2)[C@]2(C)C(=O)N(CCO)c3ccccc3[C@H]12 | 21.5 | 29.7
CCOC(=O)C(C(=O)OCC)C(=O)c1ncccc1O | 6.4 | 5.5
N#Cc1cnn(C(=O)C2COc3ccccc32)c1N (stereo not drawn) | 0.4 | 1.4
CCC(CC)N(CCc1ccccc1)C(=O)c1cccc(=O)[nH]1 | 18.5 | 8.4
Nc1cc(C(F)(F)F)ccc1N1CCCC1 | -1.0 | -1.0
COCCN(Cc1cnn(C)c1)C(=O)c1cccc(Cl)c1Cl | -1.2 | -3.3
Fc1ccc(Oc2cc(N3CCN(CCN4CCOCC4)CC3)ncn2)c(Cl)c1 | -5.1 | 1.2
CC(=O)NC(C)C(=O)Nc1ccc(-c2ccccc2)cc1 (stereo not drawn) | 4.1 | 3.2
O=C(NCc1ccccc1C(F)(F)F)c1cc(-c2ccc3c(c2)OCO3)nc2ccccc12 | 2.8 | 15.2
O=C(CN(C1CC1)S(=O)(=O)/C=C/c1ccccc1)N1CCc2sccc2C1c1ccc(Cl)cc1Cl (stereo not drawn) | 37.8 | 36.4
O=C(Nc1ccc(=O)n2c1[C@@H]1C[C@@H](CN(C(=O)c3ccc(F)cc3)C1)C2)NC1CCCCC1 | -8.0 | -12.1
COc1cc(OC)c(OC)cc1/C=N\NC(=O)CSc1nnc(-c2ccccc2)n1-c1ccccc1 | -5.6 | 3.5
Cc1cccc2[nH]c(C3CCCN(Cc4nc(-c5ccco5)no4)C3)nc12 (stereo not drawn) | 1.0 | -4.0
OC(CN(Cc1ccncc1Cl)C1CC1)c1ccccc1 (stereo not drawn) | 2.3 | 0.3
O=C1NN=C2C3CC(CC12)C1=NNC(=O)C1C3 (stereo not drawn) | 0.0 | 0.9
COc1ccc2c(C)c(C(=O)N3CC[C@H]4CC[C@@H](C3)N4)oc2c1 | 7.7 | 2.7
Cc1ccccc1C1CC1C(=O)NC1CCS(=O)C1 (stereo not drawn) | 0.0 | 4.3
COc1ccc(F)c(CC2(CCC(=O)NCc3ccco3)CCC(=O)N2)c1 (stereo not drawn) | 14.6 | 10.9

6 records drawn at random from those above, as already listed:
SMILES | NPYLR7 agonist | NPYLR7 agonist max-min
Cc1ccccc1C1CC1C(=O)NC1CCS(=O)C1 (stereo not drawn) | 0.0 | 4.3
O=C(CN(C1CC1)S(=O)(=O)/C=C/c1ccccc1)N1CCc2sccc2C1c1ccc(Cl)cc1Cl (stereo not drawn) | 37.8 | 36.4
OC(CN(Cc1ccncc1Cl)C1CC1)c1ccccc1 (stereo not drawn) | 2.3 | 0.3
COc1ccc(F)c(CC2(CCC(=O)NCc3ccco3)CCC(=O)N2)c1 (stereo not drawn) | 14.6 | 10.9
O=C1NN=C2C3CC(CC12)C1=NNC(=O)C1C3 (stereo not drawn) | 0.0 | 0.9
Cc1cccc2[nH]c(C3CCCN(Cc4nc(-c5ccco5)no4)C3)nc12 (stereo not drawn) | 1.0 | -4.0

Continued.
SMILES | NPYLR7 agonist | NPYLR7 agonist max-min
C=c1onc(-c2ccccc2Cl)c1=C1N=C(c2ccc(OCCCC)cc2)NO1 | 1.8 | 2.6
CN1CCN(C(CNC(=O)c2ccc(Br)o2)c2ccc3c(c2)CCCN3C)CC1 (stereo not drawn) | 7.3 | 2.8
CCCNC(=O)CN1CCC(NC(=O)N2Cc3ccccc3C2)CC1 | 3.6 | -1.2
Cc1ccc(-n2c(SCc3cccc(C)c3)nnc2C(C)NC(=O)c2ccc([N+](=O)[O-])cc2)cc1 (stereo not drawn) | -0.8 | 7.4
Cc1nn(C)c(C)c1CCC(=O)N1CC(c2ccccn2)C1 | 6.6 | 5.1
Nc1cc([N+](=O)[O-])ccc1SC1CCS(=O)(=O)C1 (stereo not drawn) | 4.7 | 1.5
COC1(CNC(=O)c2cnc(OC(C)C)c(Cl)c2)CCOCC1 | 0.1 | -1.6
O=C(Nc1nnc(-c2ccc3c(c2)OCCO3)o1)c1cccc2ccccc12 | -1.1 | -3.3
CCSC(C)c1noc(CN2CCN(Cc3ccccn3)CC2)n1 (stereo not drawn) | 2.2 | 1.2
Cc1nc(C)n(CCC(=O)Nc2ccc(F)cc2)n1 | 0.8 | 10.8

Molecules listed so far that have a cyano group:
SMILES | NPYLR7 agonist | NPYLR7 agonist max-min
COc1ccc(C#N)c(NC(=O)C2CCCOC2)c1 (stereo not drawn) | 10.2 | 6.8
N#Cc1cnn(C(=O)C2COc3ccccc32)c1N (stereo not drawn) | 0.4 | 1.4

(further entries)
SMILES | NPYLR7 agonist | NPYLR7 agonist max-min
Nc1nc(SCCOc2ccccc2)nc(-c2cc(C3CC3)nn2-c2ccccc2)n1 | -6.6 | -2.9
Cc1cccc(C2c3[nH]c4ccccc4c3CCN2C(=O)Cc2nc(-c3ccccc3)n[nH]2)n1 (stereo not drawn) | 11.4&1.3 | 7.6&-1.1
COC(=O)c1sccc1Cn1cc(Cl)c(=O)[nH]c1=O | 0.8 | 32.2
COc1ccc(CN2CCC(N3CCCC(C(=O)N4CCCC4)C3)CC2)cc1 (stereo not drawn) | 6.0 | 3.5
Cc1nonc1C(=O)N1CCCC(C(=O)c2ccc(Oc3ccccc3)cc2)C1 (stereo not drawn) | 13.6 | 9.3
Cn1ccnc1SCCNC1CCC2(CCNCC2)CC1 | 2.1 | 2.9
Cc1nn2c(NCCCN(C)C)cc(C(C)(C)C)nc2c1-c1ccc(Cl)cc1 | 28.9 | 26.3
Cc1ccc(Cl)c(C(=O)N2CCC(c3ccccc3)CC2)c1F | -0.8 | -9.0
CC(C)CC(N)c1csc(Nc2ccc(C(=O)NCCCO)cn2)n1 (stereo not drawn) | -5.6 | -12.6
CC(C1CCN(c2ncnc3c2CCNCC3)CC1)N1CCOCC1 (stereo not drawn) | 2.7 | 3.9

Full records as entered above. Screens in order: NPYLR7 agonist | NPYLR7 agonist max-min
COC(=O)c1sccc1Cn1cc(Cl)c(=O)[nH]c1=O as listed: 0.8 | 32.2
CNC(=O)[C@H]1CN(S(=O)(=O)c2ccccc2)[C@]2(C)C(=O)N(CCO)c3ccccc3[C@H]12 as listed: 21.5 | 29.7

(continued)
SMILES | NPYLR7 agonist | NPYLR7 agonist max-min
Cc1cccc2c(C3CCN(C(=O)c4c(Cl)cc(Cl)cc4Cl)CC3)c[nH]c12 | 18.9 | 8.4
CCC1c2ccsc2CCN1C(=O)Cc1n[nH]c(=O)c2ccccc12 (stereo not drawn) | 6.9 | 2.4
COc1cc(Cl)c(C)cc1NC(C)C(=O)N1CC(C)CC(C)C1 (stereo not drawn) | 7.4 | 3.3
CC1CN(C(=O)COc2ccccc2Cl)c2ccccc2NC1=O (stereo not drawn) | -22.0 | -23.7
CC(SCc1cc(=O)n2[nH]c(N)nc2n1)c1ccccc1Cl (stereo not drawn) | 3.1 | -1.2
Cc1cc(Br)c(NC(=O)CN2C(=O)CC3(CCCCC3)C2=O)c(Br)c1 | 13.6 | 7.5
CC(NCC(=O)NCCCc1ccccc1)c1ccc(F)cc1F (stereo not drawn) | 4.6 | 1.0
CC(C)c1noc(CCC(=O)N2CCC3(CC2)NC(=O)NC3=O)n1 | -0.8 | -1.3
O=C(CCc1ncc(-c2ccc(F)cc2F)o1)N1CCN(c2ccc(Cl)cc2[N+](=O)[O-])CC1 | 2.1 | 5.7
Cc1ccccc1NC(=O)C(C)Nc1cccc(COC(C)C)c1 (stereo not drawn) | 4.2 | 3.4
CO[C@H]1CN(C(=O)c2ccccc2Oc2ccccc2)CC[C@H]1N | 2.6 | 1.4
COc1cccc(C2C3(C#N)C(N)=NC(OC)(OC)C23C#N)c1 (stereo not drawn) | 3.8 | 3.4
CCn1ccnc1SC(C)C(=O)NCc1ccc(OC)c(OC)c1 (stereo not drawn) | 3.2 | 1.3
CSc1cccc(CN2CCN(C)C3(CCN(C(=O)N(C)C)CC3)C2)c1 | 7.7 | 4.2
C/C(=C/C(=O)O)c1ccc(F)cc1F | 7.0 | 5.7
CCN1C(=O)C(=NC(C(C)=O)c2ccccc2)SC1=S (stereo not drawn) | 11.1 | 11.6
CCNC(=O)N1CCc2c(cnc(C)c2-c2noc(C3CCOC3)n2)C1 (stereo not drawn) | 15.2 | 12.9
O=C(C1CCN(c2ccccc2)C1=O)N1CCN(c2ncccn2)CC1 (stereo not drawn) | -1.2 | -5.8
CC(=O)N1CCc2c(nc(N(C)C)nc2NCc2n[nH]c3c2CCC3)C1 | 13.3 | -2.7
CCS(=O)(=O)NCCc1sc(-c2ccccc2)nc1C | -0.1 | -1.4
O=c1ccc(=O)n(CCNC2CCN(Cc3ccccc3)CC2)[nH]1 | 6.5 | 5.0
CCc1ccc(C(=O)Nc2cccc3c2CCN3C)cc1 | -5.8 | -7.2
COc1ncccc1C(=O)N1CCCC2(CC1)CNC(=O)O2 (stereo not drawn) | 4.5 | 2.9
CCOC(=O)N1CCc2c(sc(NC(=O)/C=C/c3cccc([N+](=O)[O-])c3)c2C(N)=O)C1 | 0.4 | -0.3
C=CCOc1cccn2c(N(C)C(=O)c3ccncc3)c(CC)nc12 | 4.7 | -6.5
COc1cc2c(cc1-c1nccn1CCn1nc(C)cc1C)CCC2 | -7.3 | -6.4
Cc1cc(C(=O)NC(C)C2CCCO2)no1 (stereo not drawn) | -2.5 | -2.1
CC(C)c1nnc(NC(=O)c2ccccc2Oc2ccccc2)s1 | 2.7 | -2.7
CCS(=O)(=O)c1ccc(C(=O)N=c2sc3c(C)cc(C)cc3n2C)cc1 | -2.1 | -2.2
CCOC(=O)c1ccc(N2CCN(C(=O)C3=CC(C)(C)COc4ccc(OC)cc43)CC2)cc1 | 2.5 | 12.2
O=S(=O)(c1ccc(N2CCN(c3cccc(Cl)c3)CC2)nn1)C1CCCCC1 | 0.2 | -2.9
O=C(O)COc1ccccc1CN1CCC2(CCNCC2)CC1 | 3.2 | -0.5
CCC(C)NC(=O)c1cnn2c1NC(c1ccc(OC)cc1)CC2C(F)(F)F (stereo not drawn) | 2.3 | -2.2
O=C(Cc1ccccc1)Nc1nnc(SCc2cccc([N+](=O)[O-])c2)s1 | 29.4 | 27.6
COc1ccc(-n2ccnc2CN2CCc3c([nH]c4ccccc34)C2c2ccccn2)cc1 (stereo not drawn) | 5.1 | 3.7
CCCS(=O)(=O)Nc1ccc(N(C)C)c(CN(C(=O)NCC)C(C)C)c1 | 26.0 | 25.6
COc1cc2c(cc1OC)C(c1ccccc1Cl)N(C(=O)C1(c3ccc(Cl)cc3)CCCC1)CC2 (stereo not drawn) | 18.7 | 6.6
O=C(c1ccc(SCc2ccccc2)nc1)N1CCCCC1 | -7.3 | -10.4
O=C(CC1C(=O)NCCN1Cc1ccccn1)NCC1(c2ccccc2)CCCC1 (stereo not drawn) | 2.1 | 0.3
CN(CC(=O)N(C)C1(C#N)CCCCC1)Cc1ccc(Cl)s1 | 0.1 | -1.3
Cc1ccccc1NC(=O)N1CCCC(c2n[nH]c(=O)n2-c2ccccc2)C1 (stereo not drawn) | 4.4 | 0.7
C=CCCC(=O)N1[C@@H](c2ccccc2)[C@@H](C(=O)NC)C[C@]12CCCCN(CCOC)C2=O | 2.2 | 3.1
CC(C)(C)c1cc2nc(-c3ccccc3F)cc(C(=O)NCCCN3CCOCC3)n2n1 | 0.8&-7.5 | 11.4&-3.7
C=CCNC(=O)NC(=O)CN1CCCN(Cc2ccccc2C)CC1 | 8.4 | 4.6
Fc1cccc(CN2CCN(Cc3ccc(C4CCCCO4)s3)CC2)c1 (stereo not drawn) | 0.3 | -4.9
O=C(C1CCS(=O)(=O)C1)N1CCN(CCc2ccccc2Cl)CC1 (stereo not drawn) | -2.6 | -2.9
CCN(C)C1=C(c2c(C)[nH]n(-c3cccc(C)c3C)c2=O)C(=O)N(c2ccc(C)cc2)C1=O | 2.0&3.5 | 4.8&5.0
Cc1ccccc1CC(=O)N1CCC(n2nc(C(C)C)cc2C(C)C)CC1 | 5.2 | 17.7
Cn1cccc1C(=O)N1CCn2c(nnc2C(=O)N2CCCCC2)C1 | 6.0 | 3.2
CN1C(=C2C=NN(C)P2(=O)Nc2ccccc2)C(C)(C)c2ccccc21 (stereo not drawn) | 7.4 | 11.2
(next part)
SMILES | NPYLR7 agonist | NPYLR7 agonist max-min
COc1cc(CN(C)C(=O)c2cccs2)ccc1O | -21.3 | -19.0
COc1ccc(CCNC(=O)CSc2ncnc3sc4c(c23)CCC4)cc1OC | -8.5 | -9.1
O=C(c1ccc(Cl)cc1)c1c[nH]c2c(F)cc(F)cc2c1=O | -0.3 | -0.6
Cc1nc2sccn2c1C(=O)NCCc1nnc2n1CCNCC2 | -0.8 | -3.2
COC(=O)c1ncn2c1C(=O)OC(COc1ccccc1)C2 (stereo not drawn) | -3.3 | -8.1
CCn1cnnc1CNC(=O)N(C)Cc1c(C)noc1C | -3.7 | -4.0
CN(CCCNC(=O)c1ccccc1-c1ccc(S(C)(=O)=O)cc1)c1ccccc1 | -10.0 | -15.7
CCN(CC)C(=O)[C@@H]1C[C@H](n2cc(Cn3c(C)nc4ccccc43)nn2)CN1 | -0.9 | 6.1
COc1ccccc1OCCN1CCC(C(=O)NC(c2ccccc2)c2ccccn2)CC1 (stereo not drawn) | 6.9 | -2.4
Cc1csc(=O)n1CCC(=O)NCCCc1c[nH]c2ccccc12 | 8.3 | 7.4

Bioassay records (PubChem)
